Screening data from PubChem.
AF4-AF9 inh: blocks AF4 peptide binding to human AF9; AID 651704; inhibition, % at 10 µM; 350,000 tested, 0.47% active; AlphaScreen, biotin-AF4 peptide binding to FLAG-AF9;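 active means every replicate reaching a set inhibition limit, whatever the replicate mean, cut at about 25% in these data; inconclusive means mean inhibition reaches that limit but some replicates miss it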;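 further: 0% = plate neutral control median and 100% = total signal loss; the record names both 10 and 1 µM as test concentration; the first replicate is given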
Target sequence (P42568 whole entry, looked up): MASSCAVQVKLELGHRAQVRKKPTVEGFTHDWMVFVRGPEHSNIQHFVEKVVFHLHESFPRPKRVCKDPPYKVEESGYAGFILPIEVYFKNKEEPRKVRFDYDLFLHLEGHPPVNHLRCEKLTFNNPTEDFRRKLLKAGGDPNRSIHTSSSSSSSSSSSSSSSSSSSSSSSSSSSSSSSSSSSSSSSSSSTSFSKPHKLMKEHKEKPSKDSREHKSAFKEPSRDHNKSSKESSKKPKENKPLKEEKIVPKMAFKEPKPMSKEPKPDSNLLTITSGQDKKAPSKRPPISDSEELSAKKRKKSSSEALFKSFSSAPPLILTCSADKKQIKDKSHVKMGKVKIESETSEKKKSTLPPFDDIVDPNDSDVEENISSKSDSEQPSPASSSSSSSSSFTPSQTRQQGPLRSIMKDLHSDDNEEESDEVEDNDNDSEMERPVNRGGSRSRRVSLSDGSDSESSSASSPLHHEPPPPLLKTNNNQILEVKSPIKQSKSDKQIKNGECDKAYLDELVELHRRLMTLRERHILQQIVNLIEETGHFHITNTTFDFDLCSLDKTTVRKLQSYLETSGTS
LANA-H2B inh: blocks KSHV LANA binding to histone H2A/H2B; Q9QR71; 320,000 tested, 0.6% active; inhibition, % (test concentration not listed); cell-free LANA-H2A/H2B peptide, fluorescence polarization; in the data active means inhibition mostly above about 10%, no sharp cut-off; inactive means mostly below about 6.7%;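 further: stock transfer was 7.5 nL into about 10 µL; 0% = median of vehicle wells and 100% = median of positive control wells; one replicate is shown; the record names a cut of 25% in any replicate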
RanGTP-Impb inh: disruptors of Ran-importin-beta complex formation – biochemical, FRET, CFP-Ran, YFP-importin-beta, homogeneous, primary screen; cell-free CFP-Ran/YFP-importin-beta FRET ratio; inhibition, % (no concentration beside the values); 300,000 tested, 1.1% active;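 active means most replicates above 15%; inconclusive means exactly half above 15%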;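 further: 0% = DMSO wells and 100% = Ran loaded with GDP instead of GTP; wells of about 40 µL received 100 nL stock; the first replicate is given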
T cruzi repl: blocks replication of Trypanosoma cruzi; T. cruzi beta-gal in NIH3T3, luminescence, 90 h; inhibition, % (no concentration beside the values); 300,000 tested, 1.4% active;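 active means mean inhibition across valid replicates above about 55%, limit read from the data; inconclusive means mean below that limit but half or more replicates reach it; inactive means mean below it, under half of replicates reach it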;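 further: signal also drops with host cell toxicity which is not excluded here; 0% = plate median of DMSO wells and 100% = zero luminescence signal; higher percent means less beta-gal luminescence so fewer parasites; stock transfer was 50 nL into about 50 µL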
Beta cell apopt: beta cell apoptosis inhibition; INS-1E cytokine-induced death, ATP luminescence, 48 h; percent of positive-control rescue, neutral wells zero; protection from apoptosis, % (no concentration beside the values); 300,000 tested, 0.8% active;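 active means all replicates at 75% or more, or half of them and the mean; inconclusive means half reach 75% but not the mean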;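 further: 0% = cytokine-treated negative control wells and 100% = positive control rescue; higher means more ATP so stronger rescue from cytokine killing; wells of about 40 µL received 100 nL stock; the first replicate is given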
Calb FLC: C. albicans growth modulation with fluconazole. C. albicans CaCi-2 (fluconazole-resistant clinical isolate) + fluconazole, Alamar Blue growth, 48 h. growth inhibition, % (test concentration not listed). 300,000 tested, 0.57% active. AID 1979;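 active means most replicates above 75%; inconclusive means exactly half above 75%; inactive means most below 75%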;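 further: all wells also contain fluconazole at 8 µg/ml as a sub-toxic cotreatment; 0% = median of DMSO wells and 100% = median of geldanamycin control wells; wells of about 8 µL received 7.5 nL stock; the first replicate is given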
Bfl-1 A1 inh: inhibitors of the anti-apoptotic protein A1, read as caspase activation; MEF A1-2A-BIM cells, Caspase-Glo 3/7 luminescence, 3 h; percent of clofoctol response, vehicle zero; caspase activation, % (no concentration beside the values); 330,000 tested, 0.066% active;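 active means over half of replicate activation scores above 10%, or exactly half above 10 with the replicate mean above 10; inconclusive means replicate mean below 10 yet half the replicates above 10; inactive means over half of replicates below 10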;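 further: wells of about 30 µL received 50 nL stock; many hits fall short of the cut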
Vif TR-FRET: inhibitors of Vif binding to APOBEC3G peptide, primary screen, biochemical, TR-FRET, GST-Vif 1-94, biotin-A3G peptide, dose response retest (AID 1117319); TR-FRET GST-Vif / biotin-A3G peptide binding; higher % means a stronger effect; test concentration not given here; strong numbers were not always called active; inhibition, %; hits with a dose series show IC50 in µM; 260,000 tested, 0.57% active;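 active means above the screen mean plus three standard deviations and confirmed in dose response; inconclusive means results disagree or hit not tested in dose response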;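 further: Vif residues 1-94 fused to GST binding biotinylated APOBEC3G peptide 110-148; 0% = full assay without inhibitor and 100% = GST in place of GST-Vif; retest series ran down from 100 µM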
The depositor's hits bear a star; i = inactive; ? = inconclusive; . = no result given; & = joins results of further samples.

Sample of the layout (4 entries):
SMILES	AF4-AF9 inh	LANA-H2B inh	RanGTP-Impb inh	T cruzi repl	Beta cell apopt	Calb FLC	Bfl-1 A1 inh	Vif TR-FRET
CC(=O)NC1=NN(C(C)=O)C(c2ccc(C)cc2)S1 (stereo not given)	-0.5	-0.8	2.6	-16	-2	-7	-0.5	-7%
COc1ccc(CCNS(=O)(=O)c2c(C)[nH]c(C)c2C(=O)N2CCCCC2)cc1OC	-2.1	-1.2	-1.0	-4	0	2	-0.1	.
O=C1OCCC1Sc1nnnn1-c1ccccc1 (stereo not given)	.	i	3.5	-4	3	0	1.3	3%
Fc1ccc(NC(=S)Nc2ccccc2Cl)cc1	-2.6	-20	?	-21	-5	-18	0.4	10%

The listing, previewed entries included:
SMILES	AF4-AF9 inh	LANA-H2B inh	RanGTP-Impb inh	T cruzi repl	Beta cell apopt	Calb FLC	Bfl-1 A1 inh	Vif TR-FRET
CC(=O)NC1=NN(C(C)=O)C(c2ccc(C)cc2)S1 (stereo not given)	-0.5	-0.8	2.6	-16	-2	-7	-0.5	-7%
COc1ccc(CCNS(=O)(=O)c2c(C)[nH]c(C)c2C(=O)N2CCCCC2)cc1OC	-2.1	-1.2	-1.0	-4	0	2	-0.1	.
O=C1OCCC1Sc1nnnn1-c1ccccc1 (stereo not given)	.	i	3.5	-4	3	0	1.3	3%
Fc1ccc(NC(=S)Nc2ccccc2Cl)cc1	-2.6	-20	?	-21	-5	-18	0.4	10%
O=C1c2cccc3cc([N+](=O)[O-])cc(c23)C(=O)N1c1nncs1	.	-4.7	-0.3	-3	1	2	0.4	.
O=C1C2C(c3ccccc3)C=CC(c3ccccc3)C2C(=O)N1CCO (stereo not given)	.	5.0	5.9	-2	-2	2	-0.4	.
Cc1ccc(C(=O)N/N=C/c2nc3ccccc3n2C)cc1	.	-0.2	-3.2	8	11	12	-0.1	10%
Cc1ccc(NC(=O)c2ccc(COc3ccc4c(c3)CCC4)cc2)c(C)c1	.	2.1	-3.5	-12	0	-1	-0.4	.
CN(C)S(=O)(=O)c1ccc(C(=O)OCc2ccc([N+](=O)[O-])cc2)cc1	0.8	-6.5	4.4	2	-4	-6	0.5	8%
CCc1nn(CC(=O)NCCCN2CCN(C)CC2)c(=O)c2cc3sccc3n12	0.8	0.4	3.7	-8	-5	12	-0.1	.
C(=N\c1nc2ccccc2n1Cc1ccccc1)/c1cccs1	.	-3.6	-0.7	-21	-5	-3	0.6	3%
Cc1ccc(C(=O)CN2C(=O)NC3(CCCCCC3)C2=O)c(C)c1	-3.2	-1.6	.	4	-1	-8	1.0	-4%
O=C(c1ccc(CS(=O)(=O)c2c(Cl)cccc2Cl)o1)N1CCCC1	7.3	1.5	-3.3	1	.	3	0.1	-4%
Cc1cc(C)cc(NC(=O)c2ccc(NC(=O)C3C4CC5OC(=O)C3C5C4)cc2)c1 (stereo not given)	-4.2	4.5	3.4	1	-6	-22	0.6	-3%
CCOc1ccccc1C1CC(c2ccc(Cl)cc2)Nc2nc(N)nn21 (stereo not given)	4.1	-4.5	9.4	17	4	-12	0.3	1%
CSc1ccc(C2=CC(=O)C[C@H](c3ccc4c(c3)OCO4)C2)cc1	-1.1	3.8	.	.	-4	.	-0.2	.
Cc1cc(F)cc(C)c1Cn1cnc2c(cnn2C(C)(C)C)c1=O	0.1	-4.6	.	.	1	.	2.6	.
Cc1ccnc(NS(=O)(=O)c2ccc(NC(=O)C3CCCCC3C(=O)O)cc2)n1 (stereo not given)	.	4.8	4.2	-10	-3	15	0.6	8%
Cc1ccc2nc(SCCC(=O)O)cc(C)c2c1	.	1.3	0.0	-18	3	2	-0.2	0%
CC1CC(C)CN(S(=O)(=O)c2ccc(C(=O)OCC(=O)NCCN3C(=O)CSC3=O)cc2)C1 (stereo not given)	-0.1	1.8	-1.5	-2	-7	-9	0.9	9%
O=C(O)c1cccc(Nc2c3ccccc3nc3ccccc23)c1	?	2.9	20*	1	6	3	-0.5	.
Cc1cccc(C)c1NC(=O)C(=O)NCCc1c[nH]c2ccccc12	3.6	-2.4	0.8	-19	-6	-4	0.0	-3%
Cc1ccc(CN2C(=O)C(C)Nc3ncnc(N4CCOCC4)c32)cc1 (stereo not given)	3.0	-1.2	?	-2	-3	-2	0.6	.
OC(c1ccccc1)C(CN1CCOCC1)c1ccccc1 (stereo not given)	-1.2	-1.5	-0.5	-12	-3	-7	0.4	?
COc1cccc(OC)c1C(=O)NC(=S)N1CCCCC1c1cccnc1 (stereo not given)	-3.0	4.4	3.3	51	-6	-2	-1.0	.

Rewritten comma-delimited: two of the compounds above.
SMILES,AF4-AF9 inh,LANA-H2B inh,RanGTP-Impb inh,T cruzi repl,Beta cell apopt,Calb FLC,Bfl-1 A1 inh,Vif TR-FRET
CCOc1ccccc1C1CC(c2ccc(Cl)cc2)Nc2nc(N)nn21 (stereo not given),4.1,-4.5,9.4,17,4,-12,0.3,1%
CSc1ccc(C2=CC(=O)C[C@H](c3ccc4c(c3)OCO4)C2)cc1,-1.1,3.8,.,.,-4,.,-0.2,.

Further entries:
SMILES	AF4-AF9 inh	LANA-H2B inh	RanGTP-Impb inh	T cruzi repl	Beta cell apopt	Calb FLC	Bfl-1 A1 inh	Vif TR-FRET
CC1=NN(c2ccc(C)cc2)C(=O)/C1=C\C=C\c1ccccc1	0.8	0.2	-1.6	-9	9	5	1.1	-3%
COc1ccc(OC)c(S(=O)(=O)NCC(c2ccc(F)cc2)N2CCN(C)CC2)c1 (stereo not given)	-1.0	4.1	-2.2	-5	-1	4	-0.3	6%
CCN(CC(=O)Nc1cc(Cl)ccc1C)C(=O)c1ccc(=O)n(Cc2ccccc2)n1	-3.6	-17	?	-2	.	7	0.3	4%
CN(C)S(=O)(=O)c1cc(NC2CC(=O)N(c3ccc(F)cc3)C2=O)ccc1Cl (stereo not given)	1.3	2.0	-1.9	-17	-14	-16	0.8	2%
COCCN1C(=O)C(=O)/C(=C(/O)c2ccc(S(=O)(=O)N3CCOCC3)cc2)C1c1cccc(Cl)c1 (stereo not given)	-18	-2.2	-0.3	-3	-3	-3	1.2	.
COc1ccc(CNN2CCCCC2C(=O)Nc2ccc(OC)c(OCC(C)C)c2)cc1OC (stereo not given)	-63	8.2	-0.9	57*	0	-4	-0.9	0%
CCn1c(=S)sc2c(=O)n(CC(=O)Nc3cccc(Cl)c3)c(C)nc21	-2.2	2.3	2.9	4	-1	20	-0.4	.
CSCCC(NS(=O)(=O)c1ccc(C)cc1)C(=O)Nc1ccc(C)cn1 (stereo not given)	-1.4	-4.3	1.8	-14	1	-1	0.4	5%
COC(=O)c1cc(S(=O)(=O)Nc2ccc(C)c(F)c2)c[nH]1	6.5	-5.7	1.5	0	11	-8	-0.2	.
Cc1cc2c(cc1S(=O)(=O)NCc1ccccc1)NC(=O)CO2	-38	.	2.5	-7	-10	0	0.1	0%
CN(C)S(=O)(=O)n1cc(/C=C(\NC(=O)c2ccccc2)C(=O)NCCN2CCOCC2)c2ccccc21	2.8	-2.7	3.0	1	8	-21	-0.1	.
COc1ccc(CNS(=O)(=O)c2c(C(=O)N3CCCCCC3)c(C)n(C)c2C)cc1	4.0	3.6	-0.3	4	-5	2	-0.4	.
Nc1cc(=O)[nH]c(SCC(=O)Nc2ccccc2Sc2ccccc2)n1	-0.2	-2.8	0.3	-3	-11	-7	1.1	-1%
O/N=C/c1cc(Cl)ccc1OCc1ccccc1Cl	.	-2.8	-1.1	9	3	10	-0.1	5%
O=C(Cn1cc(C(=O)C2CC2)c2ccccc21)Nc1ccc(F)cc1	0.5	-3.8	0.1	-6	-3	14	0.6	.
CCc1cccc(NC(=O)C2CCCN(S(=O)(=O)c3c(C)[nH]c(=O)[nH]c3=O)C2)c1 (stereo not given)	.	14	-2.4	-3	-3	-3	-0.2	20%&-9%
CC(NC(=O)C(C)N1C(=O)c2ccccc2C1=O)c1ccccc1 (stereo not given)	1.1	-0.2	-0.1	-15	-2	3	-0.7	.
CC(C)c1csc(CN2CCC(n3nccc3NC(=O)Cc3ccccc3)CC2)n1	0.6	-0.6	2.4	41	.	-1	1.2	-5%
CC1C(=O)N2CCCc3cc(NC(=O)COc4ccccc4)cc1c32 (stereo not given)	-1.6	-0.3	-0.5	3	0	-2	0.1	-2%
C/C(=N/NC(=O)CCC(=O)Nc1ccc(Br)cc1)c1ccc(Br)cc1	1.5	0.8	-1.7	-16	-4	0	0.3	3%
O=C1N=c2ccccc2=C1c1sc(NS(=O)(=O)Cc2ccccc2)nc1O	2.0	2.4	2.7	2	-2	6	-3.0	24%
Cc1ccccc1NC(=S)NCc1cccn1C	3.9	-2.6	-4.4	-14	-1	0	0.7	.
COCc1ccc(C(=O)N2CCCC(N(C)Cc3ccccc3)C2)s1 (stereo not given)	-0.6	1.5	0.7	8	-5	-3	0.4	4%
c1cnc2ccc(C(c3nnnn3C3CCCC3)N3CCN(c4nc5ccccc5s4)CC3)cc2c1 (stereo not given)	.	6.9	.	.	11	10	0.4	-5%&5%
CNc1nccc(-c2ccc(F)cc2)c1C#N	-2.8	2.9	-0.9	-14	-1	-10	?	.
More entries follow:
SMILES	AF4-AF9 inh	LANA-H2B inh	RanGTP-Impb inh	T cruzi repl	Beta cell apopt	Calb FLC	Bfl-1 A1 inh	Vif TR-FRET
CC1(C)Cc2cccc(OCC(=O)Nc3cc(C(F)(F)F)ccc3N3CCOCC3)c2O1	.	-5.8	-1.3	1	2	-6	-1.0	-1%
NS(=O)(=O)c1ccc(CCNC(=O)CSc2nc3ccsc3c(=O)n2CC2CCC(C(=O)O)CC2)cc1 (stereo not given)	-6.3	-6.5	-1.1	7	0	14	-0.7	-1%
CCNC(=O)Nc1ccc(S(=O)(=O)Nc2cnc(C)nc2C)cc1	-3.5	-4.1	6.3	-13	-2	-10	1.6	.
NC(=O)c1c(C(F)(F)F)cc(-c2ccccc2)nc1NCCO	.	5.4	-1.5	10	-6	0	-0.1	4%
O=C(Nc1cccc(Cl)c1)c1ccc2c(=O)n3c(nc2c1)CCCCC3	.	.	-0.2	14	.	3	.	13%
N#C/C(C(=O)NCc1ccccc1)=C1/N=C(NC(=O)c2ccco2)c2ccccc21	0.2	-3.7	1.0	0	-2	6	0.3	0%
NC(=O)c1nnn(-c2nonc2N)c1-c1ccc([N+](=O)[O-])cc1	-1.5	4.0	-4.1	10	-10	12	-1.1	14%
O=[N+]([O-])c1ccccc1CSc1nnc2ccccn12	0.8	1.8	2.9	-8	3	-2	-0.2	.
CC(Nc1ccc2c(c1)OCCO2)C(=O)N1CCc2ccccc21 (stereo not given)	8.6	-2.8	3.7	-4	.	14	-0.7	30%
CCc1ccc(NC(=O)c2sc3nc4n(c(=O)c3c2C)CCC4)cc1	0.1	2.3	4.4	-19	7	-2	0.2	.
CCCCNC(=O)COC(=O)c1ccc(C)c(NC(=O)c2ccco2)c1	-5.2	2.3	-1.5	-3	0	1	0.2	-1%
O=C(c1cccs1)N1N=C(c2ccccc2)CC1c1ccccc1O (stereo not given)	-0.7	3.7	?	57*	6	31	-0.4	.
CN1CCN(C(=S)Nc2ccc(Cl)c(Cl)c2)CC1	-12	-3.5	13	4	-11	-2	0.1	-2%
